# Screening results deposited in PubChem BioAssay by National Center for Advancing Translational Sciences (NCATS).
# TRPV1 potentiator = HTS Assay for Compounds that Act as Potentiators of the Vanilloid Receptor 1. Transient receptor potential cation channel subfamily V member 1 (Homo sapiens), Q8NER1. TRPV1-expressing cells, Fluo-8 calcium influx, capsaicin EC20 potentiation; host cell line not named in the record; control for the full effect not named in the record. potentiation, % at 8.33 µM. 0.02% of 320,000 active. AID 540277, 2011; active means potentiation above 80%; inconclusive means 30% to 80%; inactive means below 30%; also: 0% is about no effect
# Target sequence (Q8NER1 whole entry, looked up): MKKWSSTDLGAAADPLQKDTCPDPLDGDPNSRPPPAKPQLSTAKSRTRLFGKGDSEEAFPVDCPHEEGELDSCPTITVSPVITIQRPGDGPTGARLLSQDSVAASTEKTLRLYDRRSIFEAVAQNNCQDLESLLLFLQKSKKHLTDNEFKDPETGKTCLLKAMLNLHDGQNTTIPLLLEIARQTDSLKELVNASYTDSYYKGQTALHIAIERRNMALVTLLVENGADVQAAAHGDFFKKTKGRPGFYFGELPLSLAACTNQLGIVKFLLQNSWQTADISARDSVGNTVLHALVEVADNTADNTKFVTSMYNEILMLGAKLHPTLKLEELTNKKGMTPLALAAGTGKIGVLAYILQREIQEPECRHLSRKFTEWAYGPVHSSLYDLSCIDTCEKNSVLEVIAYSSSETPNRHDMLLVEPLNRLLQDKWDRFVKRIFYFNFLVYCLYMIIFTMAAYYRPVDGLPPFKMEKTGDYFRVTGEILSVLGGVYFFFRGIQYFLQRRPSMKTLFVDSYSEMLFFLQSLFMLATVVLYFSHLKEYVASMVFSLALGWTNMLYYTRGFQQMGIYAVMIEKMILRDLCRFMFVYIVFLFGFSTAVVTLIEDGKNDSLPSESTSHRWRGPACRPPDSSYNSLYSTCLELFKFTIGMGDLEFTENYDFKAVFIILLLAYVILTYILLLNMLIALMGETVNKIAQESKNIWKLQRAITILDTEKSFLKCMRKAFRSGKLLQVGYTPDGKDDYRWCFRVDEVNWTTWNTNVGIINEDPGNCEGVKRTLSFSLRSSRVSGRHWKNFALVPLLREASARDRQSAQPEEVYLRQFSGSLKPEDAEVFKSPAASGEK
#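 TRPV1-expressing cells were cultured overnight at 35.5C and loaded with Fluo-8 calcium dye for 40 to 90 min at room temperature. After a 10 s baseline, compound was added and calcium influx was read kinetically for 3 min (ex 480/em 520 nm).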
# TRPML1 blocker = qHTS for Inhibitors of the Human Mucolipin Transient Receptor Potential 1 (TRPML1). Mucolipin-1 (Homo sapiens), Q9GZU1. TRPML1-inducible cells, Ca2+ dye fluorescence, FDSS; active compounds read low; inhibition of EC80 agonist-evoked calcium signal. activity change, negative = inhibition, % (no concentration beside the values). 0.02% of 390,000 active; in the data active means activity change below about -50%; inconclusive means about -30% to -50%; inactive means above about -30%;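 also: stimulus is agonist 54-4 at its EC80 concentration; % is scaled to controls: 0 for no effect and ±100 for the full control effect; compound concentration not given in the record; the text of the record puts the active cut at -80%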
#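 Calcium fluorescence in TRPML1-DL cells induced overnight with Tet: a 110 s read after compound pin addition, then a 110 s antagonist read after challenge with 54-4 at 4 uM final (EC80).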
# ClpP mod = qHTS Assay for Activators of ClpP; Potency, µM (series often up to 57.5 µM), for inactives: at the top dose activity change, negative = active; purified B. subtilis ClpP, FRET peptide cleavage, 20 min; AID 651965, 2013; 1.9% of 340,000 active; ATP-dependent Clp protease proteolytic subunit (Bacillus subtilis (strain 168)), P80244; active = well fitted falling curve with a large enough effect; inconclusive = small, poorly fitted or top-dose-only effect; inactive = no such curve, though single readings can be large or run the other way; also: potency is read from the fitted curve at half-maximal effect; the source files actives as falling curves though it sought activators and does not explain the sign; nearly all actives have a fitted effect of over 65% in size; many hits overshoot -100%
# Target sequence (P80244 whole entry, looked up): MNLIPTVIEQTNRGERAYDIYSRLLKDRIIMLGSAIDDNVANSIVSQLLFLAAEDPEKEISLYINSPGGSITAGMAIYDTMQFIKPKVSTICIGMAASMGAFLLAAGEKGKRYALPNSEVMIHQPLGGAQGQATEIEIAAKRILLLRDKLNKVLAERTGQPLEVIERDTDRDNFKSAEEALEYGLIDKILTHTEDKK
#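 FRET quenching reversal measured ClpP activation: 10 microg/mL B. subtilis ClpP at pH 8 with the FRET-FV decapeptide, read at 430 nm after 320 nm excitation. The 20-min minus 0-min signal was scaled between DMSO/no-enzyme wells and ADEP (5.8 microM final).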
# PINK1 modulator = A Quantitative High throughput Screen to Identify Chemical Modulators of PINK1 Expression; PINK1 immunofluorescence, high-content cytometry, 24 h; Potency, µM (highest dose often 76.6 µM), for inactives: top-dose activation (PINK1 increase), hits mostly activators; 0.2% of 410,000 active; AID 624263, 2012; active = well fitted activation curve with a large enough effect; inconclusive = small, poorly fitted or top-dose-only effect; inactive = flat fitted curve, though single readings scatter; cell line not stated here;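 also: potency is read from the fitted curve at half-maximal effect; % of control where 0% means no effect; nearly all actives have a fitted effect of over 65% in size; a mitochondrial uncoupler was the plate control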
#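 Compound titrations (5 concentrations, 24 h) on a stable cell line; DMSO and CCCP controls. Endpoint: fixed-cell PINK1 immunofluorescence with mitochondrial, cell and nuclear markers, scanned by microplate cytometer.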
# Menin MLL FP FL = qHTS Assay for Inhibitors Targeting the Menin-MLL Interaction in MLL Related Leukemias: Competition With Fluorescein Labeled MLL-derived Peptide; 290,000 tested, under 10 active; Fluorescence polarization, fluorescein-MLL peptide displacement from menin; FP activity change, % at 61.4 µM; inconclusive = falling polarisation curve, or a change in total fluorescence; inactive = total fluorescence flat and polarisation flat or rising; no compound was filed as active; the % refers to the polarisation; negative = inhibition;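 also: % of control where 0% means no effect; inhibitors lower the polarisation; unlabelled MLL peptide was the positive control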
# Sfp inh = qHTS Assay for Inhibitors of Bacillus subtilis Sfp phosphopantetheinyl transferase (PPTase); 4'-phosphopantetheinyl transferase ffp (Bacillus subtilis), Q9F4F7; 3.5% of 310,000 active; Potency, µM, for inactives: max response, negative = inhibition, usual class: inhibitors; Biochemical Sfp PPTase activity, qHTS; active = well fitted inhibition curve with a large enough effect; inconclusive = small, poorly fitted or top-dose-only effect, or another doubt; inactive = no such curve, though single readings can be large or run the other way;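 also: the enzyme is Sfp with the accession as filed and its product quenches rhodamine fluorescence; potency is read from the fitted curve at half-maximal effect; 0% = enzyme reaction without inhibitor and -100% = no enzyme wells; top concentration of the series not given in the record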
#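 Reaction rates are the 30-min fluorescence difference (ex 525, em 598 nm) in wells containing 15 nM Sfp, 5 uM rhodamine-CoA and 12.5 uM BHQ-2-YbbR at pH 7.6 with 10 mM MgCl2.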
# TRPML1 ag = qHTS for Agonists of the Human Mucolipin Transient Receptor Potential 1 (TRPML1). Mucolipin-1 (Homo sapiens), Q9GZU1. TRPML1-expressing cells, Ca2+ dye fluorescence, FDSS; host cell line not named in the record; reference of the full effect not given here. activation, % (no concentration beside the values). 0.12% of 410,000 active; in the data active = activation above about 50%; inconclusive = about 30% to 50%; inactive = below about 30%; also: 0% is about no effect; the text of the record puts the active cut at 80%
#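 Agonist activity was taken from a 110 s kinetic Ca2+ dye read on the FDSS after pinning compounds onto TRPML1-DL cells. The cells were seeded at 1,500/well with Tet inducer, incubated about 16 h, then dye-loaded at room temperature.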
# An asterisk follows results filed as active; ? = inconclusive; . = not tested or not shown; [ ] = another dose, or the depositor's remark.
SMILES,TRPV1 potentiator,TRPML1 blocker,ClpP mod,PINK1 modulator,Menin MLL FP FL,Sfp inh,TRPML1 ag
COC(=O)CC1=C(C(=O)OC)C(c2cc(OC)c(OC)cc2OC)C(C#N)=C(N)O1 (configuration not stated),6.7,19.2,-2.5%,14.2%[38.3 µM],2.7,1.6%,0.6
CCOC(=O)c1c(C)n(C)c2ccc(OCC(O)Cn3nc(C)cc3C)cc12 (configuration not stated),2.6,4.3,-7.8%,.,-1.6,11.0%,1.3
C/C(=N/NS(=O)(=O)c1ccc(C)cc1)c1cccc(NC(=O)c2cccc(Cl)c2)c1,10.6,4.2,-18.3%,1.1%,5.0,14.2%,2.9
COc1ccccc1OCC(=O)Nn1c(=S)[nH]c2ncccc2c1=O,-6.6,-2.3,2.0%,0.4%,1.1,20.4%,-0.7
CCOc1ccc(CN(C)C(=O)c2cc(S(=O)(=O)N3CCCC3)ccc2C)cc1,-5.2,50.5,0.5%,-0.4%,.,.,-0.6
Cc1ccc(S(=O)(=O)N/N=C\c2cn(CC(N)=O)c3ccccc23)cc1,6.8,8.0,-0.4%,2.1%,-1.9,7.2%,-0.2
Cc1cc(C)n(-c2ccc(C(=O)NCC(c3ccco3)N3CCCC3)cc2)n1 (configuration not stated),0.4,-1.4,0.0%,2.4%,.,.,-0.2
O=C(COC(=O)C12CC3CC(CC(O)(C3)C1)C2)N1CCN(S(=O)(=O)c2ccc(Cl)cc2)CC1,2.9,-15.3,0.5%,-0.5%,1.5,9.7%,1.8
c1ccc(-c2ccc(N3CC4(CCNCC4)C3)cc2)cc1,.,.,.,0.0%,-2.1,?,.
COc1ccc(CN2CCN(c3ccccc3OC)CC2)cc1OC,?,-6.8,-1.7%,2.6%,-6.3,-21.5%,0.2
CCn1c(COc2cccc(C)c2)nnc1SCC(=O)NC1CCCC1,-4.7,-3.3,-1.3%,-0.2%,-3.1,13.4%,-0.9
COCCN1CCN(C(=O)C2CCC(=O)N(CCc3ccccc3)C2)CC1 (configuration not stated),-6.5,29.2,-1.1%,3.3%,-4.3,1.6%,0.5
CC(C)Sc1ncc(Cl)c(C(=O)N(Cc2ccc(N(C)C)cc2)C2CCS(=O)(=O)C2)n1 (configuration not stated),.,11.1,0.5%,0.6%,.,.,0.3
CCOc1ccc(NC(=O)CN(c2ccc(C)cc2)S(=O)(=O)c2cccs2)cc1,.,-13.5,9.2%,3.5%,.,.,-0.3
Cc1ccc(S(=O)(=O)Oc2ccccc2/C=N/O)cc1,9.9,11.7,0.5%,5.6%,-1.4,5.6%,2.0
O=C1C2C3C=CC(C3)C2C(=O)N1Cc1cccnc1 (configuration not stated),24.5,48.1,-1.9%,0.6%,-1.4,20.1%,-0.1
O=C(O)c1cc(NN=Nc2cccc([N+](=O)[O-])c2)cc([N+](=O)[O-])c1,-6.9,.,-1.8%,2.4%,0.6,11.5%,.
CC1=C/C(=N\OS(=O)(=O)c2ccccc2)C=CC1=O,24.9,19.8,0.1%,-1.4%,3.7,10.2%,4.0
Cc1nn2c3c(cnc2c1-c1ccccc1)C(=O)CC(c1ccccc1)C3 (configuration not stated),7.6,-8.9,-0.7%,12.8%[38.3 µM],5.3,5.8%,0.2
CCN(C(=O)CSc1nc2ccccc2o1)C1CCS(=O)(=O)C1 (configuration not stated),2.6,0.1,0.8%,2.2%,.,.,0.8
CC1CN(C(=S)Nc2ccc(F)cc2F)CC(C)O1 (configuration not stated),3.3,-2.2,-1.0%,-1.2%,-2.4,-4.2%,0.3
CCCOc1ccc(/C=C/C(=O)OCC(=O)N(C)c2c(N)n(Cc3ccccc3)c(=O)[nH]c2=O)cc1OCC,5.3,-12.9,-10.5%,9.1%,.,.,-0.6
O=C(CC1(O)C(=O)c2ccccc2C1=O)c1ccccc1,4.0,-2.2,.,-0.4%,1.5,-6.8%,-0.8
Cc1ccc(NC(=O)C2CCN(S(C)(=O)=O)CC2)cc1Cl,-14.0,-18.2,0.4%,-1.0%,6.3,6.8%,-0.1
Cc1ccc(-c2nnc(SCC(=O)N3CCCc4ccccc43)o2)cc1,.,1.7,0.8%,-0.2%,.,.,-0.2

# Next section; it opens with the 2 that closed the last part.
SMILES,TRPV1 potentiator,TRPML1 blocker,ClpP mod,PINK1 modulator,Menin MLL FP FL,Sfp inh,TRPML1 ag
Cc1ccc(NC(=O)C2CCN(S(C)(=O)=O)CC2)cc1Cl,-14.0,-18.2,0.4%,-1.0%,6.3,6.8%,-0.1
Cc1ccc(-c2nnc(SCC(=O)N3CCCc4ccccc43)o2)cc1,.,1.7,0.8%,-0.2%,.,.,-0.2
COC(=O)c1cnc(N2CCN(c3ccccc3OC)CC2)c2ccccc12,.,-6.7,1.3%,1.8%,.,.,-0.3
CC(=O)N(Cc1ccccc1)Cc1nc2sc(C)c(C)c2c(=O)[nH]1,-1.8,11.5,.,0.0%,1.0,-6.0%,1.8
Cn1c(=O)c2c(nc(CN3CCOCC3)n2CCCc2ccccc2)n(C)c1=O,5.0,9.7,-2.5%,-1.5%,4.1,19.7%,0.0
COc1cc2[nH]c(=O)n(C3CCCCC3)c(=O)c2cc1OC,-3.5,41.9,?,0.3%,-1.5,11.8%,0.0
COc1cc2c(cc1OC)C(C)N(C(=O)c1c(-c3ccccc3)noc1C)CC2 (configuration not stated),3.1,4.7,1.8%,7.9%,1.0,14.0%,-1.0
C[C@@H]1CN([C@@H](C)CO)C(=O)c2cc(NS(C)(=O)=O)ccc2O[C@@H](C)CCCCO[C@H]1CN(C)Cc1ccc2c(c1)OCO2,.,1.4,0.5%,2.0%,.,.,-0.6
COc1ccc(Nc2cc(C(=O)NCCCN(C)Cc3ccccc3)c3ccccc3n2)c(OC)c1,.,25.4,-1.1%,0.5%,.,.,1.6
CC(=O)Oc1ccccc1C1OCCN1C(C)=O (configuration not stated),-1.0,6.0,0.5%,0.7%,1.3,11.1%,-0.2
C=C1CCN(C(CC(C)C)C(=O)NCc2ccc(Cl)c(Cl)c2)S(=O)(=O)c2ccccc21 (configuration not stated),.,-13.2,.,.,-0.2,11.2%,7.8
COc1cccc(CNC(=O)Cn2c(=O)ccc3cc(S(=O)(=O)N4CCCC4)ccc32)c1,.,-11.2,-20.6%,-4.0%,.,.,0.5
Cc1ccc2c(=O)cc(C(=O)N(Cc3ccccc3Cl)C3CCS(=O)(=O)C3)oc2c1 (configuration not stated),.,4.6,-3.5%,0.1%,.,.,1.0
Cc1ccc(SCc2nc(N)nc(Nc3ccccc3C)n2)c(C)c1,-8.3,27.2,1.4%,7.2%,1.6,-12.5%,1.5
COc1ccc(/C=N/Nc2ncc(C(F)(F)F)cc2Cl)c(OC)c1OC,13.2,14.7,-2.5%,11.5%,1.9,14.6%,2.3
COc1ccc(C2(c3ccc(OC)cc3)NC(=O)NC2=O)cc1,9.2,17.3,.,0.3%,-0.5,19.5%,5.1
CC(=O)c1cccc(-n2c(CCC(=O)O)ccc2-c2cccs2)c1,-3.8,27.2,-1.9%,1.0%[38.3 µM],10.2,8.91µM*,0.3
COC(=O)C1=C(N)Oc2c(oc(CO)cc2=O)C1c1ccc(F)cc1 (configuration not stated),-7.6,0.3,0.3%,0.6%,5.9,-10.8%,0.1
C=CCC1(CC=C)CCCN1C(=O)c1cc(COc2ccc(C)nc2)on1,-0.3,-0.1,3.7%,0.5%,2.7,13.8%,1.8
CCOC(=O)C(C(=O)Nc1ccccc1)C1CCCCC1 (configuration not stated),-9.6,-9.9,-0.1%,2.2%,2.6,18.5%,0.0
CCOc1ccccc1N1CC(C(=O)Nc2cc(S(=O)(=O)N3CCOCC3)ccc2OC(C)C)CC1=O (configuration not stated),.,3.4,1.0%,3.4%,.,.,-0.2
CCCNC(=O)CSc1nnc(C)s1,-5.9,-4.5,-1.3%,5.3%[38.3 µM],-0.6,14.1%,0.1
CC1CCC2(CC1)NC(=O)N(CC(=O)Nc1cccnc1Cl)C2=O (configuration not stated),1.0,23.1,2.1%,0.6%,.,.,-0.1
CCOC(=O)N1CCN(C(=O)CSc2nc(=O)n3cccc(C)c3n2)CC1,-22.3,-7.1,-27.6%,-1.2%,.,.,0.1
O=C(CCC(=O)n1ncc2ccccc21)N1CCCCC1,-17.6,19.9,2.4%,0.8%,0.1,1.9%,-0.5
[2H]c1c([2H])c([2H])c(C(=O)c2sc(N3CCCCCC3)nc2-c2ccccc2)c([2H])c1[2H],-6.4,-30.0,-4.0%,2.6%,5.0,-7.0%,3.4
Cc1ccccc1NS(=O)(=O)c1cc2c3c(c1)CC(=O)N3CCC2,8.4,1.4,-1.2%,0.9%,.,6.5%,-0.6
O=C(NC1CC1)c1ccc(-c2nc3ccccc3s2)s1,-22.9,-2.2,?,16.4%,0.2,9.6%,0.0
CC(=O)c1ccccc1NC(=O)CSCc1nc2sc(C)c(C)c2c(=O)[nH]1,-1.2,12.0,2.1%,-0.2%,.,.,-0.1
CSc1ccc(-c2c(C#N)c(N)nc3c2c(C)nn3-c2ccccc2)cc1,-10.9,-5.0,22.4µM*,5.4%,?,3.1%,0.9
COC(=O)c1ccc(CNC(=O)/C=C/c2cc([N+](=O)[O-])ccc2OC(F)F)cc1,1.1,-14.6,-1.0%,.,-8.4,-1.0%,0.6

# Arranged by the number under TRPML1 blocker (high to low): three from the list above
Compound | TRPML1 blocker | PINK1 modulator | Menin MLL FP FL | Sfp inh
CC(=O)Oc1ccccc1C1OCCN1C(C)=O (configuration not stated) | 6.0 | 0.7% | 1.3 | 11.1%
O=C(NC1CC1)c1ccc(-c2nc3ccccc3s2)s1 | -2.2 | 16.4% | 0.2 | 9.6%
CCOC(=O)C(C(=O)Nc1ccccc1)C1CCCCC1 (configuration not stated) | -9.9 | 2.2% | 2.6 | 18.5%
